Sfp inh = Sfp phosphopantetheinyl transferase inhibition; Q9F4F7; Potency, µM, for inactives: max response, negative = inhibition, hits mostly inhibitors; actives 3.5% (n = 310,000); AID 1490; Biochemical Sfp PPTase activity, qHTS; active = well fitted inhibition curve with a large enough effect; inconclusive = small, poorly fitted or top-dose-only effect, or another doubt; inactive = no such curve, though single readings can be large or run the other way;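 also: the enzyme is Sfp with the accession as filed and its product quenches rhodamine fluorescence; potency is read from the fitted curve at half-maximal effect; 0% = enzyme reaction without inhibitor and -100% = no enzyme wells; top concentration of the series not given in the record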
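Sfp 15 nM + cpd, 15 min RT; start w/ rhodamine-CoA 5 uM, BHQ-2-YbbR 12.5 uM (final); 50 mM Hepes pH 7.6, 10 mM MgCl2, 0.01% NP-40, 0.01% BSA; read 525/598 nm at 0 and 30 min.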
TRPV1 potentiator = human TRPV1 potentiation; TRPV1-expressing cells, Fluo-8 calcium influx, capsaicin EC20 potentiation; host cell line not named in the record; control for the full effect not named in the record; potentiation, % at 8.33 µM; actives 0.02% (n = 320,000); AID 540277; active means potentiation above 80%; inconclusive means 30% to 80%; inactive means below 30%; also: 0% is about no effect
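TRPV1-expressing cells were cultured overnight at 35.5C and loaded with Fluo-8 calcium dye for 40 to 90 min at room temperature. After a 10 s baseline, compound was added and calcium influx was read kinetically for 3 min (ex 480/em 520 nm).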
Menin-MLL FL inh = displaces fluorescein MLL peptide from human menin; Fluorescence polarization, fluorescein-MLL peptide displacement from menin; FP activity change, % at 61.4 µM; 290,000 tested, under 10 active; inconclusive = falling polarisation curve, or a change in total fluorescence; inactive = total fluorescence flat and polarisation flat or rising; no compound was filed as active; the % refers to the polarisation; negative = inhibition;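 also: % of control where 0% means no effect; inhibitors lower the polarisation; unlabelled MLL peptide was the positive control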
ClpP mod = qHTS Assay for Activators of ClpP. ATP-dependent Clp protease proteolytic subunit (Bacillus subtilis (strain 168)), P80244. purified B. subtilis ClpP, FRET peptide cleavage, 20 min. Potency, µM (titrated, usually from 57.5 µM), without a hit: top-dose activity change, negative = active. actives 1.9% (n = 340,000). AID 651965, 2013; active = well fitted falling curve with a large enough effect; inconclusive = small, poorly fitted or top-dose-only effect; inactive = no such curve, though single readings can be large or run the other way; also: potency is read from the fitted curve at half-maximal effect; the source files actives as falling curves though it sought activators and does not explain the sign; nearly all actives have a fitted effect of over 65% in size; many hits overshoot -100%
Target sequence (P80244 whole entry, looked up): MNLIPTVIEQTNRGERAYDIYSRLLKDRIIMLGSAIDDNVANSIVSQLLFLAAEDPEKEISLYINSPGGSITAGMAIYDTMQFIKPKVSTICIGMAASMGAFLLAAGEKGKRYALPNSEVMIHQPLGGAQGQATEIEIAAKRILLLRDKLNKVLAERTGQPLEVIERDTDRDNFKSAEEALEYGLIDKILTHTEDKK
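Buffer: 100 mM Tris/HCl pH8, 100 mM KCl, 0.05% low protease BSA, 2.5% glycerol, 0.01% Tween-20. ClpP 10 microg/mL final; 20 min RT; delta FRET normalized to ADEP and DMSO controls.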
TRPML1 inh = blocks the human TRPML1 channel; AID 624415; activity change, negative = inhibition, % (test concentration not listed); TRPML1-inducible cells, Ca2+ dye fluorescence, FDSS; stronger effect = lower value; inhibition of EC80 agonist-evoked calcium signal; actives 0.02% (n = 390,000); Q9GZU1; in the data active means activity change below about -50%; inconclusive means about -30% to -50%; inactive means above about -30%;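 also: stimulus is agonist 54-4 at its EC80 concentration; % is scaled to controls: 0 for no effect and ±100 for the full control effect; compound concentration not given in the record; the text of the record puts the active cut at -80%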
Target sequence (Q9GZU1 whole entry, looked up): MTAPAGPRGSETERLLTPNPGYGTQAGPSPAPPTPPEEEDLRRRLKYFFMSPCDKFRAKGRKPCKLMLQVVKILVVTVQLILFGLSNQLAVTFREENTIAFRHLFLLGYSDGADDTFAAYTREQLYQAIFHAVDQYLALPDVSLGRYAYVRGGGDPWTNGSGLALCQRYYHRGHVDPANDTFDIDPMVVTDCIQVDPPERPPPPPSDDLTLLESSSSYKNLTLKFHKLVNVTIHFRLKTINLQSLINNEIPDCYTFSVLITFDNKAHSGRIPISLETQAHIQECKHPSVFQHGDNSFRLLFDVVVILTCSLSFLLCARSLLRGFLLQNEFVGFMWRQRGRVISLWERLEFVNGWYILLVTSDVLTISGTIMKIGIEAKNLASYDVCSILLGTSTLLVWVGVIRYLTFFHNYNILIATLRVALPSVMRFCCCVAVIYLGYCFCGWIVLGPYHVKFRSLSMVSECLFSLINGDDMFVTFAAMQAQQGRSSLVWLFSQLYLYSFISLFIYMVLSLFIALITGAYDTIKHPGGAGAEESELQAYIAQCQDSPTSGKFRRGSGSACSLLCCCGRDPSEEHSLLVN
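Calcium fluorescence in TRPML1-DL cells induced overnight with Tet: a 110 s read after compound pin addition, then a 110 s antagonist read after challenge with 54-4 at 4 uM final (EC80).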
TRPML1 ag = human mucolipin-1 channel agonism; TRPML1-expressing cells, Ca2+ dye fluorescence, FDSS; host cell line not named in the record; reference of the full effect not given here; activation, % (concentration not given with the values); actives 0.12% (n = 410,000); AID 624414; in the data active = activation above about 50%; inconclusive = about 30% to 50%; inactive = below about 30%; also: 0% is about no effect; the text of the record puts the active cut at 80%
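TRPML1-DL cells, Tet-induced overnight (~16 h, 37 degrees C), loaded 45-90 min at room temperature with Ca8 no-wash calcium dye plus quencher. FDSS fluorescence: 10 s baseline, compound pin-transfer, 110 s agonist read, then EC80 54-4 (4uM final) and 110 s antagonist read.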
PINK1 expr mod = modulators of PINK1 expression; Potency, µM (highest dose often 76.6 µM), inactives show at the highest dose activation (PINK1 increase), usual class: activators; actives 0.2% (n = 410,000); AID 624263; PINK1 immunofluorescence, high-content cytometry, 24 h; active = well fitted activation curve with a large enough effect; inconclusive = small, poorly fitted or top-dose-only effect; inactive = flat fitted curve, though single readings scatter; cell line not stated here;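 also: potency is read from the fitted curve at half-maximal effect; % of control where 0% means no effect; nearly all actives have a fitted effect of over 65% in size; a mitochondrial uncoupler was the plate control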
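Measures PINK1 amount and localization on or inside mitochondria by immunofluorescence. Stable cells get compounds at 5 concentrations for 24 hours before fixation and staining; CCCP controls included.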
Starred values were filed as active, the others as inactive; ? = inconclusive; · = no result given; [ ] = another dose, or the depositor's remark. Random draw from the library. About 4.4% of those tested had a hit in this group.

SMILES | Sfp inh | TRPV1 potentiator | Menin-MLL FL inh | ClpP mod | TRPML1 inh | TRPML1 ag | PINK1 expr mod
CCOC(=O)C1CCN(C2CCN(C(=O)c3oc4c(C)c(C)ccc4c3C)CC2)CC1 | 1% | 2 | · | 2.8% | -16 | -0.6 | 1.2%
Cc1ccc(NC(=O)C[n+]2cc(-c3ccc(C)cc3)n3c2CCC3)cc1 | 13% | 2 | -0.9 | · | 4 | -0.5 | -0.4%
Cn1c(=O)oc2cc(S(=O)(=O)N3CCN(c4ccc(F)cc4)CC3)ccc21 | 13% | 3 | 19 | 1.5% | 20 | 1.5 | -0.4%
CCCCCCSc1nnc2[nH]c(=O)cc(N)n12 | -2% | 20 | 1.1 | 1.0% | 23 | 0.2 | 1.4%
CCOc1ccccc1NC(=O)CSc1ncc2c(n1)-c1ccccc1N(CC)S2(=O)=O | · | · | · | -19% | 9 | 1.1 | 0.7%
Cc1ccc(/C=N/n2c(COc3ccccc3)n[nH]c2=S)s1 | 15% | -8 | 1.9 | 1.9% | -21 | 0.7 | ·
COc1ccc(OCc2nc(C#N)c(N3CCN(c4ccc(OC)cc4)CC3)o2)cc1 | 3% | -5 | 0.3 | -2.2% | 15 | 0.0 | 1.5%
COc1ccccc1Cn1c(CNS(=O)(=O)c2ccc(C(C)C)cc2)nc2cccnc21 | · | · | · | -12% | -7 | 1.8 | 1.3%
O=c1c(-c2ccccc2)nc2cnc(N3CCNCC3)nc2n1-c1ccccc1 | -8% | · | -0.8 | · | · | · | -0.9%
CCN(CC)C(=O)c1ccccc1NC(=O)c1ccccc1C | 17% | -13 | 0.7 | · | 13 | 0.3 | 0.8%
O=C(CC(Nc1ccc(Cl)cc1)C(=O)O)c1ccccc1 (configuration not stated) | 7.1µM* | ? | 15 | 1.1% | 8 | -0.1 | -0.8%
Cc1cc(=O)oc2cc(NC(=O)CC3(CC(=O)O)CCCC3)ccc12 | 16% | 0 | 0.4 | · | -9 | -0.4 | -1.6%
CCCCOC(=O)c1ccc(NC(=O)c2ccc(F)cc2F)cc1 | · | · | · | -20% | 24 | 2.3 | 1.7%
COc1ccc(NC(=O)C2CCCN(S(=O)(=O)c3cccc4nonc34)C2)c(OC)c1 (configuration not stated) | 4% | 2 | 3.7 | -2.1% | -10 | 0.5 | 7.9%
CCOc1ccc(OCC)c(S(=O)(=O)NCc2cccnc2)c1 | 7% | 15 | 0.7 | -1.1% | 2 | -0.2 | -0.5%
COCCNC(=O)Cn1c(=O)n(CCCCCC(=O)NCc2ccccc2Cl)c(=O)c2sccc21 | · | · | · | 0.2% | 45 | 1.6 | 0.0%
Cc1nc(-c2ccc(S(=O)(=O)N3CCN(c4cccc(C)c4C)CC3)cc2)co1 | -2% | 3 | · | -9.7% | 14 | 0.8 | 1.5%
CC(=O)Nc1ccc(S(=O)(=O)Nc2cccc(C(=O)Nc3ccccc3C(=O)O)c2)cc1 | 12% | 0 | -3.2 | -1.1% | 2 | 1.0 | 0.4%
O=C(c1nsnc1-c1ccccc1O)N1CCCCC1 | 31% | -5 | 3.8 | -1.1% | -6 | -0.4 | 2.0%
COCCCNC(=S)NCCNc1nc2cc(C)c(C)cc2cc1C#N | 9% | 7 | 1.0 | · | 23 | 1.8 | -1.2%

Gathered by group, those above with an aryl thioether with sulfur outside any ring.
SMILES | Sfp inh | TRPV1 potentiator | Menin-MLL FL inh | ClpP mod | TRPML1 inh | TRPML1 ag | PINK1 expr mod
CCCCCCSc1nnc2[nH]c(=O)cc(N)n12 | -2% | 20 | 1.1 | 1.0% | 23 | 0.2 | 1.4%
CCOc1ccccc1NC(=O)CSc1ncc2c(n1)-c1ccccc1N(CC)S2(=O)=O | · | · | · | -19% | 9 | 1.1 | 0.7%

Next part:
SMILES | Sfp inh | TRPV1 potentiator | Menin-MLL FL inh | ClpP mod | TRPML1 inh | TRPML1 ag | PINK1 expr mod
CCOC(=O)C1=NN(C(=O)c2ccc(OC)cc2)C(O)(c2ccc(Cl)cc2)C1 (configuration not stated) | -14% | -5 | 9.0 | · | -20 | ? | -0.3%
Cc1c(CC(=O)N2CCCCC2)c(=O)oc2c(C)c(O)ccc12 | · | · | · | 3.6% | -26 | -0.1 | -0.9%
N#C/C(=C\c1ccc(OCC(N)=O)cc1)S(=O)(=O)c1ccccc1 | 15% | -2 | -7.2 | -5.1% | 28 | 1.3 | 2.5%
O=C1NC[C@H](CCCCN2CCN(CCC3CCCCC3)C(=O)C2=O)N(CCC2CCCCC2)C1=O | · | · | · | -1.9% | · | -0.4 | 9.3%
Cc1cc(C)c(S(C)(=O)=O)c(N(C)N)n1 | 12% | 8 | 0.8 | · | 36 | 5.5 | 0.0%
Cc1ccc(-c2cn3nc(N4CCCC(C(=O)NCc5ccccc5F)C4)sc3n2)cc1 (configuration not stated) | · | · | · | 0.2% | 7 | 2.1 | 0.0%
CCOc1ccc(CNC(=O)Nc2ccc3c(c2)N(C)C(=O)c2ccccc2S3)cc1 | · | · | · | -5.0% | 25 | 2.2 | 1.7%
COc1ccc(C(=O)Nc2c(-c3cccs3)c(=O)c3ccccc3n2C)cc1 | 9% | ? | 3.5 | · | 10 | -1.1 | 0.1%
O=C(/C=C/c1ccccc1Cl)N(Cc1ccc(Cl)cc1)C1CCS(=O)(=O)C1 (configuration not stated) | -6% | -31 | 4.1 | 1.2% | -4 | 1.0 | 0.5%
N#CCCNC(=O)Cn1c(COc2ccc(Cl)cc2)nc2ccccc21 | 21% | -8 | 0.5 | 1.4% | -12 | -0.8 | 0.0%
COc1ccc(C(=O)Nc2ccccc2C(=O)N/N=C/c2cccc3ccccc23)cc1 | 16% | -32 | 5.5 | ? | -1 | 0.0 | 15%
COc1ccc2nc(COC(=O)c3cccs3)c(C(C)=O)[n+]([O-])c2c1 | ? | -3 | 0.4 | -3.1% | 29 | 3.3 | -0.2%
Cc1cccc(NC(=O)c2cc3c(=O)n4ccccc4nc3s2)c1 | -17% | 7 | -5.8 | · | 36 | -0.3 | 9.3%
COc1ccc(CC(=O)c2ccc(O)cc2O)cc1OC | 13% | 12 | 1.3 | -0.2% | 31 | 0.6 | -2.5%
Cc1ccc(S(=O)(=O)N2CC=C(N)N2)cc1 | · | · | · | -1.6% | 13 | 0.3 | -1.1%
CCn1c(SCC(=O)Nc2ccc(C(C)=O)cc2)nc2nc3c(cc2c1=O)COC(C)(C)C3 | 16% | -1 | 2.8 | -0.9% | 16 | 3.2 | 2.9%
CCOC(=O)C=C(C(=O)OCC)C(=O)OCC | 18µM* | -4 | -0.4 | 2.2% | -10 | -0.3 | 1.3%
CCOC(=O)c1sc(NC(=O)CSc2nc3c(c(=O)n2-c2ccccc2)SCC3)c(C(=O)OCC)c1C | ? | 14 | 8.0 | · | · | · | ·
O=C(c1ccccc1)c1ncc(C(F)(F)F)cc1Cl | 2% | 4 | -0.4 | -0.2% | -8 | -0.3 | 6.4%[38.3 µM]
CCc1nn(CC(=O)N2CC(C)CC(C)C2)c(=O)c2cccn12 (configuration not stated) | 14% | -6 | 1.4 | -0.7% | 0 | -0.4 | 2.1%
CC(=O)Nc1ccc(S(=O)(=O)Nc2ccc(F)c([N+](=O)[O-])c2)cc1 | 15% | -57 | -5.5 | · | 17 | 1.0 | 1.7%
CC(=O)Nc1ccc(Nc2c3c4c(cccc4n(C)c2=O)C(=O)c2ccccc2-3)cc1 | -4% | -18 | ? | -3.0% | 1 | 1.8 | ?
COc1ccc(CC(=O)NCC2CCCN(Cc3ccc(OC)cc3F)C2)cc1 (configuration not stated) | 22% | -3 | -2.8 | -2.4% | · | · | 0.7%
C[C@@H]1CN([C@@H](C)CO)C(=O)c2cc(N(C)C)ccc2O[C@@H](C)CCCCO[C@@H]1CN(C)Cc1ccc2c(c1)OCO2 | · | · | · | -0.6% | -5 | -0.2 | -0.7%
COc1ccc2[nH]c3c(c2c1)[C@@H]1CCN2C(=O)CCC[C@H](C3)[C@H]12 | 2% | -15 | -12 | -22% | -16 | -0.5 | 0.4%
O=S(=O)(c1ccccc1)N1CC=C(c2ccccc2)CC1 | -4% | -2 | 1.8 | · | 45 | 0.9 | 4.3%
O=C(COc1cccc2ccccc12)N/N=C/c1ccccc1OCc1ccc(C(=O)O)cc1 | -18% | -8 | 4.5 | · | 0 | -0.6 | 5.1%
COc1ccc(NC(=O)C2CCN(S(=O)(=O)c3ccc(C)cc3)CC2)cc1OC | 13% | -24 | -3.4 | 2.1% | 15 | -0.3 | -11%[38.3 µM]
CC1CC(=O)N(CC(=O)NCc2ccco2)c2ccccc2S1 (configuration not stated) | 11% | -17 | 6.6 | -0.1% | 16 | 0.5 | -3.0%[38.3 µM]
O=C1CC(NCCN2CCOCC2)C(=O)N1Cc1ccc(N2CCCC2=O)cc1 (configuration not stated) | -26% | 4 | 2.6 | -2.1% | -3 | -0.2 | 0.8%
CC(=O)Nc1ccc(NC(=O)C(C)OC(=O)c2ccc(OCc3c(C)noc3C)cc2)cc1 (configuration not stated) | 9% | 11 | 1.7 | -0.9% | 5 | 1.6 | 0.7%[38.3 µM]
Cc1cccc(NC(=O)NCc2ccc3c(c2)OCO3)c1 | 10% | -1 | -0.5 | · | · | · | ·
CC(C)(C)C(=O)N1c2ccccc2CCc2ccccc21 | -5% | -8 | -3.6 | 0.0% | 8 | 1.5 | 0.4%
CN(Cc1ccccc1)C(=O)c1cccc(NC(=O)Cc2ccc(NC(=O)C3CCCN(C(=O)CCc4ccccc4)C3)cc2)c1 (configuration not stated) | · | · | · | -2.1% | -10 | 3.1 | -1.7%
CC(=O)Nc1cccc(-c2csc(C(C)(O)c3cccc(F)c3)n2)c1 (configuration not stated) | · | · | · | -3.0% | · | -0.6 | 2.4%
Cc1noc(C)c1CSc1nnc2ccc3ccccc3n12 | 11% | 6 | -2.8 | -8.9% | -2 | -0.1 | 13%[38.3 µM]
Cc1onc(-c2ccccc2Cl)c1C(=O)Nc1ccccc1O | 11% | -2 | -4.4 | · | 37 | 1.0 | 3.3%

Copied from the list:
O=c1c(-c2ccccc2)nc2cnc(N3CCNCC3)nc2n1-c1ccccc1 | Sfp inh = -8%
CCCCCCSc1nnc2[nH]c(=O)cc(N)n12 | Menin-MLL FL inh = 1.1

Screens from PubChem BioAssay.
